Vaccinia mCherry = qHTS for Stage-Specific Inhibitors of Vaccinia Orthopoxvirus: mCherry Reporter Primary qHTS; Vaccinia virus mCherry reporter infection, fluorescence; about a quarter of the inactives have no number; actives 0.63% (n = 310,000); Potency, µM (highest dose often 36.5 µM), inactives show top-dose activity change, negative = inhibition, hits mostly inhibitors; active = well fitted inhibition curve with a large enough effect; inconclusive = small, poorly fitted or top-dose-only effect; inactive = no such curve, though single readings can be large or run the other way; tested in A549 cells; further: nearly all actives have a fitted effect of over 35% in size; inactives centre near -10
Vaccinia Venus = qHTS for Stage-Specific Inhibitors of Vaccinia Orthopoxvirus: Venus Reporter Primary qHTS | actives 0.46% (n = 330,000) | Vaccinia virus Venus reporter expression, fluorescence | Potency, µM (doses to about 36.5 µM), for inactives: at the highest dose activity change, negative = inhibition, actives largely listed as inhibitors; active means well fitted inhibition curve with a large enough effect; inconclusive means small, poorly fitted or top-dose-only effect; inactive means no such curve, though single readings can be large or run the other way; tested in A549 cells; further: nearly all actives have a fitted effect of over 30% in size; inactives centre near -10
The depositor's hits bear a star; i = inactive; ? = inconclusive; / = no result given; & = joins results of further samples; [ ] = remark or other dose. On the % scale 0 is the no-effect control and ±100 the full control effect; potency means the concentration at half of the fitted maximal effect.

Below each SMILES – Vaccinia Venus | Vaccinia mCherry
COc1ccc2sc(N(CCCN(C)C)C(=O)c3ccc(C(=O)c4ccccc4)cc3)nc2c1
 : ? | -25%
CCCc1cc(=O)oc2cc(C)cc(OCc3nn[nH]n3)c12
 : -14% | /
O=c1c2ccccc2ncn1Cc1ccco1
 : -7% | -5%
Cc1c(C)c2ccc(OCC(=O)Nc3ccc(CN4CCOCC4)cc3)cc2oc1=O
 : -9% | i
CN(C)CCCN(C(=O)c1ccc(S(=O)(=O)N(C)Cc2ccccc2)cc1)c1nc2c(F)cccc2s1
 : -18% | i
COc1ccccc1-n1c(SCC(=O)N(C)C)nnc1-c1ccco1
 : -13% | -16%
Cc1ccc(OCCC(=O)Nc2c(C)n(C)n(-c3ccccc3)c2=O)cc1
 : 5% | /
S=c1[nH]nc(-c2cc(-c3ccccc3)n[nH]2)n1/N=C/c1ccc(Br)s1
 : -17% | -25%
Cc1ccc(C(O)c2ncc(-c3ccc(F)cc3)[nH]2)c(C)c1 (stereo not given)
 : -21% | -20%
CCOc1ccc(NC(=O)C(c2ccccn2)N(C(=O)CCl)c2ccc(OC)cc2)cc1 (stereo not given)
 : 7% | -19%
COc1cc(NC(=O)CCCc2nnc3n(CC(C)C)c(=O)c4sccc4n23)cc(OC)c1
 : -9% | -11%
COc1cccc(Cn2c(CNS(=O)(=O)c3ccc4c(c3)CCCC4)nc3cccnc32)c1
 : -17% | -18%
CC1CCN(C(=O)C(C)Sc2nc(-c3ccccc3)cc(C(F)(F)F)n2)CC1 (stereo not given)
 : -14%&-24% | 25%
Cn1cccc1C(=O)OCC(=O)NC(=O)c1ccc(Cl)cc1
 : -10% | -13%
CC1(C)SC2c3ccccc3C(=O)N2[C@@H]1C(=O)NCCCN1CCOCC1 (stereo not given in full)
 : 0% | -1%

Additional compounds follow:
Below each SMILES – Vaccinia Venus | Vaccinia mCherry
CN(C)c1cc[n+](CC(=O)Nc2c(Cl)cc(Cl)cc2Cl)cc1
 : -18% | i
Oc1ccccc1O
 : -7% | -13%
COc1ccc(C)cc1NC(=O)c1ccc2c(c1)CCN2S(=O)(=O)c1ccc(Cl)cc1
 : -8% | -9%
CCOC(=O)N(C)C[C@@H]1OCc2cnnn2CCCC(=O)N([C@H](C)CO)C[C@@H]1C
 : -2% | i
Cc1ccc(S(=O)(=O)c2cn(CC(=O)Nc3ccc(C)c(Cl)c3)c3ccc(C)cc3c2=O)cc1
 : -3% | -2%
Nc1ccccc1SCc1c(Cl)cccc1Cl
 : 1% | -12%
CCOC(=O)c1c(Oc2ccc(C(=O)OC)cc2)nnc(-c2ccccc2)c1-c1ccccc1
 : -1% | -10%
O=S(=O)(NC(=NCCc1ccc(Cl)cc1)c1ccccc1Cl)c1cccs1
 : -21% | -17%
CCN(C(=O)C1CCC(CNS(=O)(=O)c2cccc3nsnc23)CC1)c1ccccc1 (stereo not given)
 : -12% | -25%
O=S(=O)(c1ccccc1)N1Cc2ccccc2-n2nncc2C1
 : 12% | 0%
Cc1ccc(NC(=S)NCCc2c[nH]c3ccccc23)cc1
 : ? | ?
COc1ccc(S(=O)(=O)N2CCOCC2)cc1NC(=O)C1CC(=O)N(c2ccc3c(c2)OCCO3)C1 (stereo not given)
 : 0% | 8%
Cc1ccc(NC(=O)COC(=O)C(NS(=O)(=O)c2ccc(Cl)cc2)C(C)O)c(Br)c1 (stereo not given)
 : 5% | -5%
CC1(C(=O)NCc2cccc3ccccc23)CCN1C(=O)C1(c2ccccc2)CC1 (stereo not given)
 : -5% | -15%
O=C(CSc1ccc(Br)cc1)Nc1ccccc1Oc1ccccc1
 : -13% | -15%

Entries of single compounds, quoted from the list.
Record of CCOC(=O)c1c(Oc2ccc(C(=O)OC)cc2)nnc(-c2ccccc2)c1-c1ccccc1 : Vaccinia Venus: -1%; Vaccinia mCherry: -10%
Record of CC1(C(=O)NCc2cccc3ccccc23)CCN1C(=O)C1(c2ccccc2)CC1 (stereo not given) : Vaccinia Venus: -5%; Vaccinia mCherry: -15%
Record of Oc1ccccc1O : Vaccinia Venus: -7%; Vaccinia mCherry: -13%

Continuation.
Below each SMILES – Vaccinia Venus | Vaccinia mCherry
c1ccc(-c2ccc(CN3Cc4ccccc4-n4nncc4C3)cc2)cc1
 : -19% | -29%
CCC(C)CCN1CCN=C1N(C)C (stereo not given)
 : -21% | -15%
CC(C)C(NC(=O)c1ccccc1)c1nnc(SCC(=O)NC2CCCC2)n1C (stereo not given)
 : -3% | -29%
COc1ccc(CCNC(=O)Cn2cnc3ccccc3c2=O)cc1OC
 : -5% | -10%
Nc1nc(=O)n(C2OC(CO)C(O)C2O)cc1Cl (stereo not given)
 : 0% | 13%
CCc1nn2c(=O)c(S(=O)(=O)Nc3ccccc3)c(C)nc2s1
 : -1% | -10%
CCCCNC(=O)c1nc(-c2ccncc2)oc1-c1ccc(OC(F)(F)F)cc1
 : -5% | -18%
O=C(COC(=O)CNS(=O)(=O)c1ccc2ccccc2c1)Nc1ccccc1Sc1ccccc1
 : -6% | i
CCOC(=O)c1c(NC(=O)c2ccccc2N(C)S(=O)(=O)c2ccccc2)sc2c1CCCC2
 : -23% | -16%
COc1cccc(-c2ccc(-c3noc(-c4ccccc4Br)n3)c(OC)n2)c1
 : -13% | -16%
Cc1nn(C2CCS(=O)(=O)C2)c2nc(C3CC3)cc(C(=O)Nc3cccc(C#N)c3)c12 (stereo not given)
 : -10% | i
CCOc1ccc(NS(=O)(=O)c2cc3c(cc2Cl)NC(=O)CO3)cc1
 : -6% | -4%
CCC(=O)N1CCN(c2ccc(NC(=O)COc3cccc(C)c3C)cc2)CC1
 : -13% | -26%
COc1cc(/C=N/O)ccc1OCc1ccccc1Cl
 : -14% | i
Cc1ccccc1CN1C(=O)CN(S(C)(=O)=O)CC1(C)C(=O)NC(C)C (stereo not given)
 : 12% | -13%

Additional compounds follow:
Below each SMILES – Vaccinia Venus | Vaccinia mCherry
O=C(Cc1ccc(S(=O)(=O)N2CCOCC2)s1)NCCOc1ccccc1
 : -17% | -10%
O=C(COC(=O)C1CCN(S(=O)(=O)c2ccc3c(c2)OCCO3)CC1)Nc1ccccc1OC(F)F
 : -14% | -17%
CCOc1cc(/C=N/NC(=O)C2CCCC2)ccc1OC(C)C
 : 1% | -12%
CN1CCCCC1(C)C(=O)NCc1ccc(C(C)(C)C)cc1 (stereo not given)
 : -2% | 12%
Cc1nc2nc(C)c(NS(=O)(=O)c3ccc(C(C)(C)C)cc3)c(=O)n2[nH]1
 : 1% | -14%
Cc1ccc(C(=O)NC(=S)Nc2ccc3[nH]c(=O)[nH]c3c2)cc1C
 : -7% | -11%
CC(=O)Nc1cccc(NC(=O)CN2c3cccc4cccc(c34)S2(=O)=O)c1
 : -29% | ?
C[C@@H](C(=O)Nc1ccc(OC(F)F)c(Cl)c1)N1C(=O)C2CC=CCC2C1=O (stereo not given in full)
 : 6% | -24%
CCCN1CCN(CCCNC(=O)Cn2nc(C)n3c(cc4c(OC)cccc43)c2=O)CC1
 : -2% | -7%
COc1cccc(CN2C(=O)C3(SCC(=O)N3c3cc(C)cc(C)c3)c3ccccc32)c1 (stereo not given)
 : -9% | -20%
COc1ccccc1CCC(=O)N(Cc1ccccc1)c1c(N)n(Cc2ccccc2)c(=O)[nH]c1=O
 : -18% | ?
CC(=Nc1ccccc1)c1sc2ccccc2c1O
 : -20% | i
CCn1c(SCC(=O)Nc2nonc2C)nnc1-c1ccoc1C
 : -11% | -18%
CCOC(=O)C1CCc2c(ccc3ccccc23)N1CCC#N (stereo not given)
 : -8% | i
CCOc1ccccc1OCCCC(=O)OCC(=O)Nc1cccc(Cl)c1
 : 4% | i

The list continues.
Below each SMILES – Vaccinia Venus | Vaccinia mCherry
CCCn1c(NC(=O)CCS(=O)(=O)c2ccc(C)cc2)nc2ccccc21
 : -2% | -5%
Nc1nc(N)c(C=Nc2ccc(Br)cc2)c(Nc2ccc(Br)cc2)n1
 : ? | -18%
CC(C)C(NC(=O)c1ccccc1NC(=O)c1ccco1)C(=O)NNC(=O)c1ccncc1 (stereo not given)
 : -2% | -9%
CCN(CC)S(=O)(=O)c1ccc2oc(SCC(=O)NC3CC3)nc2c1
 : ? | 18µM*
CC1(C(=O)Nc2ccc3c(c2)OCO3)CCN1C(=O)c1ccco1 (stereo not given)
 : 2% | i
CCN(CC)C(=O)CNC(=O)c1nn(-c2ccc(OC)c(Cl)c2)c(=O)c2ccccc12
 : -2% | -15%
Cc1cc(Nc2nc3ccccc3[nH]c2=O)n(-c2ccccc2)n1
 : 8.9µM* | 7.1µM*
O=C(Nc1ccccc1)C12CC3CC(C1)CC(n1cnc([N+](=O)[O-])n1)(C3)C2
 : 7% | 13%
Cc1onc(-c2ccccc2)c1CNS(=O)(=O)c1cccc(Br)c1
 : -2%[7.34 µM] | -3%[7.34 µM]
COc1ccccc1NS(=O)(=O)c1cc(NC(=O)CCNC(C)=O)ccc1C
 : -3% | -5%
CCOC(=O)C1=C(O)/C(=C/c2ccc(OCC(=O)O)c(OCC)c2)SC1=Nc1ccc(OC)cc1
 : -4% | i
CCN(CC)c1ccc(C2C3CCCCC3(O)CCN2CC(=O)N2CCCCC2)cc1 (stereo not given)
 : -18% | -6%
CCc1nnc(NC(=O)CSc2nnc(-c3cccnc3)n2C)s1
 : -1% | i
Cc1ccc(P(=O)(CSC(=N)N)c2ccc(C)cc2)cc1
 : -13% | -19%
NC(=O)c1ccsc1NC(=O)COC(=O)COc1ccccc1F
 : -12% | i

New compounds follow:
Below each SMILES – Vaccinia Venus | Vaccinia mCherry
Cc1ccc(NC(=O)CS(=O)CC(=O)NC(C)CCc2ccco2)cc1Cl (stereo not given)
 : -10% | -25%
CSc1ccc(CNC(=O)C2CCN(c3nnc(-n4cccc4CNc4ccc(C)cc4)s3)CC2)cc1
 : -28% | i
CC1CN(C(=O)c2ccc(S(=O)(=O)Nc3cccc(C(F)(F)F)c3)cc2)CC(C)O1 (stereo not given)
 : -15% | -16%
CCOc1ccc(OCCCCn2cnc3ccccc3c2=O)cc1
 : -17% | i
C=CCc1ccccc1Oc1cc(F)nc(N)n1
 : -15% | ?
COc1ccc(C(=O)Nc2nnc(SCC(=O)NCC3CCCO3)s2)cc1OC (stereo not given)
 : 0% | i
CC1CN(C)C(C)C/C1=N\Oc1ccc([N+](=O)[O-])cc1 (stereo not given)
 : -5% | -1%
Cc1cc(Br)ccc1OCC(=O)N1CCCCCC1
 : -25% | -14%
COC(=O)[C@H](CC(C)C)NC(=O)/C=C/[C@H]1O[C@@H](n2cc(C)c(=O)[nH]c2=O)C[C@@H]1O
 : 5% | 8%
O=C(CN1CCCCC1)N/N=C/c1ccccc1OCc1ccccc1
 : -4% | -13%
COc1ccc(OC)c(-c2cc(C(=O)N3CCCc4ccccc43)no2)c1
 : -21% | -13%
Cc1ccc(CNC(=S)NCc2ccncc2)cc1
 : -8% | -7%
COC(=O)Cc1cc(=O)[nH]c(/N=C(\N)Nc2cccc(C)c2)n1
 : -5% | -5%
CCc1cc(C)c(O)c(CC)n1
 : -10% | /
COc1cc(C#N)c(NS(=O)(=O)c2ccc3[nH]c(=O)sc3c2)cc1OC
 : -7% | i

Continuation.
Below each SMILES – Vaccinia Venus | Vaccinia mCherry
COC(=O)c1[nH]c2cc(C)ccc2c1NC(=O)CN1CCN(c2ccccc2OC)CC1
 : -29% | /
COc1ccc(CN(C)C(=O)c2cccc(NC(=O)CC3SC(N4CCCCC4)=NC3=O)c2)c(OC)c1 (stereo not given)
 : -22% | ?
C1=Cc2ccccc2/C1=C\c1cccc(/C=C2\C=Cc3ccccc32)c1
 : -20% | -3%
Cc1ccc(-c2cc(N)n(Cc3cccc(Cl)c3)n2)cc1
 : -17% | -22%
COc1ccc(CN2CCN(Cc3cc(=O)oc4cc(C)ccc34)CC2)c(OC)c1OC
 : -7%&-5% | -13%&-6%
CCN(CC(=O)NCc1ccc(F)cc1)C(=O)C1CCN(S(=O)(=O)c2ccc(C(C)C)cc2)CC1
 : -22% | -29%
COc1ccc(OC)c(CCNC(=O)c2cc3cccc4c3n2CC(C)S4)c1 (stereo not given)
 : -25% | -25%
c1nc(C2CCCCC2)cc2cc3c(cc12)OCO3
 : -14% | -1%
Cc1ccc(Cl)cc1N(CC(=O)NC1CCCCC1)S(C)(=O)=O
 : -13% | -11%
Cc1nc(N(C)C)c2sc(=S)n(Cc3ccccc3)c2n1
 : -4% | -8%
COc1ccc(OC)c(Cc2nnc(CCC(=O)NC3CCCCCCC3)o2)c1
 : -8% | -20%
O=C(O)Cc1nn(Cc2ccc(Cl)cc2)c(=O)c2ccccc12
 : 4% | -4%
Cc1c(C(=O)NCc2cccnc2)oc2c1C(=O)CC(C)(C)C2
 : -3% | -5%
COc1cc(OC)cc(C(=O)NC(C(=O)N2CCc3ccccc3C2)C(C)C)c1 (stereo not given)
 : ? | ?
Cc1noc(C)c1CSc1ccccc1C(=O)OC(C)C(N)=O (stereo not given)
 : -8% | 1%
CNCC(O)c1ccc(OC(=O)C(C)(C)C)c(OC(=O)C(C)(C)C)c1 (stereo not given)
 : -19% | i
CC(=O)Nc1ccc(Nc2nc3ccc(Cl)cc3n3cnnc23)cc1
 : 1% | -5%
CCCCCCc1cc2cc(-c3cn4c(n3)sc3cc(OC)ccc34)c(=O)oc2cc1O
 : -14% | -14%
